# INS promoter inh: TRM-6 insulin promoter activity inhibition; TRM-6 cells (human fetal islet line), insulin promoter-eGFP reporter, imaging; reporter expression induced with tamoxifen; inhibition, % at 2 µM; 130,000 compounds, 0.9% hits;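 active = inhibition above the mean plus 3 SD, with well images judged a real hit on visual review, cut at about 60% in these data, passing the limit was not always enough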
# HSV replic up: HSV replication enhancement | HSV replication augmentation in cells, fold increase | maximum fold increase | 220,000 compounds, 0.005% hits;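 active = peak rise of 1.5-fold or more in the series; tested in PC3 cells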;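 also: first round at 10 µM; read as green reporter fluorescence; hits show the peak of a series up to 25 µM; 1 = signal of infected wells without compound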
# PKD1 inh: PKD1 (human) kinase inhibition. PKD1 kinase fluorescence polarization assay. inhibition, %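 (about 10 µM by stock and volumes)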. 200,000 compounds, 0.056% hits;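 active = inhibition of 50% or more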;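 also: controls were vehicle for no effect and a reference inhibitor for full effect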
# RGS16-Gao: regulators of human RGS16-Galphao interaction; 220,000 compounds, 0.38% hits; bead-based flow cytometry RGS16-Galphao binding, fluorescence; actives lie on both sides; binding response (% of control), % at 10 µM; AID 1441;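 active = below 25% or above 175%, edge rows of some plates excepted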;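 also: Galphao activated by GDP with aluminum fluoride before binding; 100% = wells without compound and 0% = beads without RGS; some results beyond the cut were filed as inactive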
# Target sequence (O15492 whole entry, looked up): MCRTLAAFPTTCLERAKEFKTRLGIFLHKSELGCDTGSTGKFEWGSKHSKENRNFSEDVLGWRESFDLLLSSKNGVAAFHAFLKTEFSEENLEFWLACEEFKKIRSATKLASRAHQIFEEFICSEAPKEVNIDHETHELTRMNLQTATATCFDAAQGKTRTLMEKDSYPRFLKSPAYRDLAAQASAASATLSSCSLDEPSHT
# Target sequence (P09471 whole entry, looked up): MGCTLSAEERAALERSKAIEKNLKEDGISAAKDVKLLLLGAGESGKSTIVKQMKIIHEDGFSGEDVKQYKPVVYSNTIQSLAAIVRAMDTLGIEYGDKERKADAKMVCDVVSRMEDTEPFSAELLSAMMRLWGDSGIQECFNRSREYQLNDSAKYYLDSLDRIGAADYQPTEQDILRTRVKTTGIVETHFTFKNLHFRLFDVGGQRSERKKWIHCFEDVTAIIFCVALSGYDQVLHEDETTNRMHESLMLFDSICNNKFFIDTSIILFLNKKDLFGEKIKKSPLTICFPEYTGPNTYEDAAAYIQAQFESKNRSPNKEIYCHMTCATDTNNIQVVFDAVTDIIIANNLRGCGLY
# GALR2 agonist: GALR2 (human) receptor agonism. O43603. GALR2-expressing cells, agonist activation read-out. activation, %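 (tested at 5 µM)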. 140,000 compounds, 0.48% hits. AID 803;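 active = above mean plus 3 SD of all compounds, about 5% in these data, not always enough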;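 also: 0% = vehicle buffer wells and 100% = reference agonist at full effect; tested in CHO reporter cells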
# Target sequence (O43603 whole entry, looked up): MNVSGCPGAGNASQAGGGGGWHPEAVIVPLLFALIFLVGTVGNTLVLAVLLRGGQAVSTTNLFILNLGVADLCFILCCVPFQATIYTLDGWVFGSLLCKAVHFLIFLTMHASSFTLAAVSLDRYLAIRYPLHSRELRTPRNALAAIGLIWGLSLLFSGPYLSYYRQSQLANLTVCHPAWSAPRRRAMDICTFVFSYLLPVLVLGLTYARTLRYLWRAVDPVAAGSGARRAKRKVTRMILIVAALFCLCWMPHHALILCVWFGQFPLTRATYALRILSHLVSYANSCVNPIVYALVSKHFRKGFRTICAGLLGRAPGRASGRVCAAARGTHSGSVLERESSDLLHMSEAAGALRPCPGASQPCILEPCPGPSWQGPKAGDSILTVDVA
# INS promoter inh cell count: second read-out of INS promoter inh, no call of its own (marks repeat the call); normalized cell count, %; measured here: cell count, toxicity; reference of the scale not given here;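 cells exposed to compound for 48 h; stained nuclei by imaging scaled within each plate; lower means fewer cells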
# HSV replic up primary fold: second read-out of HSV replic up, no call of its own (marks repeat the call); fold increase; compound at 10 µM; measured here: primary screen fold increase 10 uM; tested in PC3 cells;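 GFP signal in the first replicate; 1 = infected wells without compound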
# * = called active by the depositor; i = inactive; nt = no result given. Rows were taken by chance; overall some 1.3% were active at least once.
cpd	canonical_smiles	INS promoter inh	GALR2 agonist	HSV replic up primary fold	PKD1 inh	RGS16-Gao	HSV replic up	INS promoter inh cell count
1	O=C(C1COc2ccccc2O1)N1CCn2c(nc3ccccc32)C1 (configuration not stated)	nt	-3.1	1.28	-6.7	107.1	i	nt
2	CCC(C)NC(=O)CSc1nc2ccccc2c(=O)n1-c1c(C)n(C)n(-c2ccccc2)c1=O (configuration not stated)	nt	nt	1.03	-1.2	99.3	i	nt
3	COc1ccc(O[C@H]2C=C[C@@H](c3ccccc3)O[C@@H]2COC(=O)CC/C(C)=N/OC[C@@H](O)[C@H]2O[C@@H]3OC(C)(C)O[C@@H]3[C@H]2O)cc1	23.8	-0.8	nt	2.0	103.3	nt	86.7
4	CC1CCc2c(sc3nc(SCC(=O)O)n(-c4ccccc4)c(=O)c23)C1 (configuration not stated)	nt	nt	1.05	nt	105.9	i	nt
5	CCOC(=O)c1nn(-c2cccc(C)c2)c2nc(-c3ccccc3)c(C#N)c(=O)n12	-22.9	-1.7	1.03	4.4	41.3	i	58.0
6	O=S(=O)(c1cccc(S(=O)(=O)N2CCC(n3nnc4ccccc43)CC2)c1)N1CCCCC1	-27.8	0.1	0.89	16.1	97.2	i	134.2
7	CC(=O)NCC(=O)NC(Cc1ccccc1)C(N)=O (configuration not stated)	nt	-1.2	1.03	-8.8	112.4	i	nt
8	COc1ccccc1C(=O)Nc1ccc2c(c1)nc(CCNC(C)=O)n2C	50.0	-1.9	1.04	-0.9	694.6	i	158.1
9	COCC1CCCN(Cc2nc(C(c3ccccc3)c3ccccc3)no2)C1 (configuration not stated)	nt	nt	0.95	-2.7	111.1	i	nt
10	CCNS(=O)(=O)c1ccc(NC(=O)c2cccnc2)cc1	-50.0	-1.5	1.13	1.0	104.1	i	88.8
11	CC(=O)OC1c2ccccc2C(=O)N1Cc1ccccc1Cl (configuration not stated)	nt	-2.8	1.05	10.2	102.3	i	nt
12	CC(C)c1ccc(NC(=O)CSc2n[nH]c(=O)n2Cc2ccco2)cc1	nt	nt	0.94	nt	99.4	i	nt

# Following part
cpd	canonical_smiles	INS promoter inh	GALR2 agonist	HSV replic up primary fold	PKD1 inh	RGS16-Gao	HSV replic up	INS promoter inh cell count
13	CCc1cccc(CN2CCC(CNC(=O)Nc3ccc(Cl)cc3)CC2)c1	nt	nt	0.79	-2.5	101.1	i	nt
14	CCOCC(=O)Nc1cccc(Br)c1	-39.5	0.6	0.89	0.8	95.6	i	97.2
15	COc1ccccc1NC(=O)Nc1cc(C(C)C)ccc1C	nt	nt	0.88	nt	102.4	i	nt
16	CN1C(=O)CC(N2CCN(CCN=CC3=C(O)CC(C)(C)CC3=O)CC2)C1=O (configuration not stated)	nt	-1.3	0.93	-1.6	100.8	i	nt
17	COCCCNC(=O)c1cc(C)nc2ccc(F)cc12	-34.2	-0.4	0.96	-2.0	107.6	i	151.9
18	CCc1ccc(/C=c2\s/c(=C\C(=O)C(C)(C)C)[nH]c2=O)cc1	-21.4	0.5	0.88	-4.7	103.7	i	116.3
19	O=C(OC(C(=O)Nc1ccc([N+](=O)[O-])cc1Br)c1ccccc1)c1ccccc1 (configuration not stated)	nt	nt	0.96	-4.1	101.3	i	nt
20	COc1ccc(OC)c(S(=O)(=O)N2CCN(c3c(C)cccc3C)CC2)c1	nt	-1.0	0.93	-8.9	102.4	i	nt
21	COC(=O)c1cccc(COC(=O)c2cccnc2SC)c1	-146.2	0.6	1	-0.7	119.2	i	35.2
22	COc1ccc2cc(-c3[nH]ncc3CN3CCCCO3)ccc2c1	21.4	nt	0.86	-3.2	100.6	i	108.0
23	COCCNC(=O)CN(Cc1ccc(Cl)cc1)S(C)(=O)=O	-21.4	-2.9	0.97	6.0	101.8	i	165.5
24	CS(=O)(=O)N(CC(=O)N/N=C/c1cc([N+](=O)[O-])ccc1Cl)c1ccccc1	-2.9	-2.3	0.97	-3.5	100.0	i	130.8

# Next results follow.
cpd	canonical_smiles	INS promoter inh	GALR2 agonist	HSV replic up primary fold	PKD1 inh	RGS16-Gao	HSV replic up	INS promoter inh cell count
25	CN(C)C(=O)C(=O)c1c(-c2ccccc2)cc2ccccn12	-40.7	-3.2	0.99	-11.2	93.9	i	142.0
26	Cn1nnnc1SCC1=C(C(=O)O)N2C(=O)C(NC(=O)Cn3nc(C(F)F)cc3C3CC3)C2SC1 (configuration not stated)	28.6	nt	1.02	-6.7	104.7	i	108.2
27	CCc1ccc(NS(=O)(=O)c2ccc3[nH]cc(C(=O)N(C)Cc4ccco4)c(=O)c3c2)cc1	-9.1	-0.3	0.92	-4.8	101.3	i	46.5
28	COc1ccc(NC(=S)N(CCc2c(C)[nH]c3ccc(C)cc23)Cc2cccs2)cc1	5.0	-1.5	nt	8.4	193.9	nt	79.3
29	CCc1ccc(NC(=O)C2CC(=O)Nc3ncnn32)cc1 (configuration not stated)	6.7	-0.2	1.01	-7.3	94.0	i	94.1
30	C=CCc1c(C)nc(SC)nc1Nc1ccc(C)cc1	nt	0.4	0.82	0.9	101.7	i	nt
31	O=C(COc1c(Br)cc(Br)c2cccnc12)N1CCCCC1	nt	nt	1.04	-6.0	99.9	i	nt
32	O=C(Nc1ccc(S(=O)(=O)Nc2ncccn2)cc1)c1ccc(Br)o1	nt	nt	0.9	-2.9	99.7	i	nt
33	Nc1nc(-c2ccc3ccccc3c2)cs1	8.3	nt	0.95	-5.8	82.7	i	88.2
34	Cc1onc(-c2ccccc2Cl)c1C(=O)Nc1ccc(S(=O)(=O)Nc2nccs2)cc1	-23.5	nt	1.12	0.8	102.8	i	73.9
35	COC(=O)c1cc(Br)c(=O)n(-c2ccccn2)c1	nt	-2.6	0.96	-10.7	50.6	i	nt
36	CCNC(=O)CSc1nnc(C2CC2)n1-c1ccccc1	-32.6	-1.4	0.997	-1.7	98.9	i	110.4

# Carrying on.
cpd	canonical_smiles	INS promoter inh	GALR2 agonist	HSV replic up primary fold	PKD1 inh	RGS16-Gao	HSV replic up	INS promoter inh cell count
37	CCOC(=O)c1sc(-c2ccc(Cl)cc2Cl)nc1O	nt	nt	1.07	nt	99.0	i	nt
38	C=CCNC(=O)C1CCCN(S(C)(=O)=O)C1 (configuration not stated)	-23.5	0.0	nt	1.6	99.7	nt	95.6
39	CCOc1ccccc1C(=O)N(CCC(=O)OC)c1ccccn1	-8.1	-2.1	0.983	-2.4	101.5	i	101.9
40	COc1ccc(C2/C=C\CN(C(=O)CC(C)(C)C)CC(=O)N2Cc2ccc(F)cc2)cc1 (configuration not stated)	nt	nt	1.02	nt	104.1	i	nt
41	CCS(=O)(=O)N1CCN(C2Cc3ccccc3C2)CC1	nt	-2.3	0.97	-8.2	101.5	i	nt
42	CCN(C(=O)COC(=O)/C=C/c1ccc(S(=O)(=O)N2CCc3ccccc32)cc1)C1CCS(=O)(=O)C1 (configuration not stated)	15.8	nt	1.09	4.6	101.2	i	126.9
43	COc1ccc(Cl)cc1NC(=O)c1cc(-c2ccccc2O)n[nH]1	-28.6	-0.1	0.86	-12.1	102.1	i	102.5
44	CCCCCCCCc1nc(SCC(C)=O)n[nH]1	nt	nt	1	nt	102.6	i	nt
45	O=C(COC(=O)/C=C/c1ccco1)Nc1ncc(Cl)cc1Cl	46.7	-0.7	0.96	-7.7	103.3	i	83.2
46	Cc1nn(Cc2ccccc2)c(Cl)c1/C=C/C(=O)OCC(=O)N(C)C1CCS(=O)(=O)C1 (configuration not stated)	nt	nt	0.95	2.3	102.1	i	nt
47	CCCCCNCc1cccc(Br)c1	nt	-1.1	0.74	0.8	105.5	i	nt
48	COc1ccc(C2CC(c3cccs3)=NN2S(C)(=O)=O)cc1 (configuration not stated)	nt	nt	0.79	nt	101.4	i	nt

# A section taken from the entries so far, as a working copy:
cpd	canonical_smiles	INS promoter inh	GALR2 agonist	HSV replic up primary fold	PKD1 inh	RGS16-Gao	HSV replic up	INS promoter inh cell count
1	O=C(C1COc2ccccc2O1)N1CCn2c(nc3ccccc32)C1 (configuration not stated)	nt	-3.1	1.28	-6.7	107.1	i	nt
2	CCC(C)NC(=O)CSc1nc2ccccc2c(=O)n1-c1c(C)n(C)n(-c2ccccc2)c1=O (configuration not stated)	nt	nt	1.03	-1.2	99.3	i	nt
3	COc1ccc(O[C@H]2C=C[C@@H](c3ccccc3)O[C@@H]2COC(=O)CC/C(C)=N/OC[C@@H](O)[C@H]2O[C@@H]3OC(C)(C)O[C@@H]3[C@H]2O)cc1	23.8	-0.8	nt	2.0	103.3	nt	86.7
4	CC1CCc2c(sc3nc(SCC(=O)O)n(-c4ccccc4)c(=O)c23)C1 (configuration not stated)	nt	nt	1.05	nt	105.9	i	nt
5	CCOC(=O)c1nn(-c2cccc(C)c2)c2nc(-c3ccccc3)c(C#N)c(=O)n12	-22.9	-1.7	1.03	4.4	41.3	i	58.0
6	O=S(=O)(c1cccc(S(=O)(=O)N2CCC(n3nnc4ccccc43)CC2)c1)N1CCCCC1	-27.8	0.1	0.89	16.1	97.2	i	134.2
7	CC(=O)NCC(=O)NC(Cc1ccccc1)C(N)=O (configuration not stated)	nt	-1.2	1.03	-8.8	112.4	i	nt

# Next part
cpd	canonical_smiles	INS promoter inh	GALR2 agonist	HSV replic up primary fold	PKD1 inh	RGS16-Gao	HSV replic up	INS promoter inh cell count
49	Cc1ccc(O)c(C(=O)/C=C/c2ccc3c(c2)OCCO3)c1	7.1	nt	nt	-0.4	61.0	nt	90.5
50	Cc1oc(-c2ccc(Cl)cc2)cc1C(=O)/C(C#N)=C/Nc1cccc(OC(F)(F)F)c1	nt	nt	1	nt	89.1	i	nt
51	CC(C)Cn1c(N)c(C(=O)COC(=O)c2cc(C(F)(F)F)nc3ccccc23)c(=O)n(C)c1=O	0.0	-0.9	0.8	-12.3	97.5	i	116.8
52	CCOC(=O)CSc1nnc(CSc2nc(N)c3c(C)c(C)sc3n2)n1-c1ccccc1	11.8	-0.9	0.95	6.8	100.3	i	126.9
53	Cc1nn(-c2ccccc2)c(Cl)c1/C=N/NC(=O)c1ccccc1NS(=O)(=O)c1cccs1	nt	-0.6	0.94	-5.7	107.3	i	nt
54	Cc1c(-c2cccc(NC(=O)c3cccs3)c2)nc2ncccn12	nt	-1.4	0.88	43.8	104.0	i	nt
55	CCOc1ccccc1N/C(=N/c1nc(C)cc(C)n1)NC(=O)Nc1ccc(Cl)c(Cl)c1	42.9	-0.9	1.04	0.0	99.8	i	107.0
56	CN(C)NC(=O)c1ccc([N+](=O)[O-])s1	nt	nt	1.04	nt	95.8	i	nt
57	CCn1c(O)c(N=Nc2ccc3ccccc3n2)c2ccccc21	nt	nt	1.01	nt	97.2	i	nt
58	COCCNC(=O)c1cc2ncc(Br)cn2n1	26.7	-0.7	0.96	-5.9	222.2	i	99.4
59	CCCOCC1CC2(SC(=Nc3ccc(C)cc3)NC2=O)C(=O)O1 (configuration not stated)	5.3	-0.5	0.87	-10.3	142.7	i	97.2
60	O=C1CC(SCCc2nc3ccccc3[nH]2)C(=O)N1c1ccc(F)c(Cl)c1 (configuration not stated)	20.0	-1.2	1.04	-0.8	nt	i	134.2

# (continued)
cpd	canonical_smiles	INS promoter inh	GALR2 agonist	HSV replic up primary fold	PKD1 inh	RGS16-Gao	HSV replic up	INS promoter inh cell count
61	COc1cc(/C=C2/C(=N)N3C=CSC3=NC2=O)ccc1OCCOc1ccc(NC(C)=O)cc1	nt	nt	0.9	-0.8	97.8	i	nt
62	CSc1nc(C)[nH]c(=O)c1C#N	nt	nt	1.17	nt	104.9	i	nt
63	CC(C)OC(=O)CC(NC(=O)OC(C)(C)C)c1ccccc1 (configuration not stated)	22.7	-3.0	1.04	-2.1	38.1	i	86.0
64	N#CC1=C(SCc2ccccc2)NC(=O)CC1c1ccc(O)cc1 (configuration not stated)	-387.5	-2.1	0.99	-2.7	145.9	i	48.5
65	Cc1cccc(OCC2=NS(=O)(=O)c3ccccc3N2)c1	30.0	0.4	0.96	-8.1	91.3	i	116.0
66	CCOC(=O)c1c(C)[nH]c(C(=O)NNC(=O)c2ccccc2)c1C	40.0	-1.8	0.95	-6.0	101.9	i	140.7
67	CC(C)c1nnc(NC(=O)CC(=O)Nc2ccccc2C(=O)O)s1	12.9	-1.4	1.02	-1.1	99.8	i	116.3
68	COc1ccc(N2CCN(C(=S)NCc3ccc(C)cc3)CC2)cc1	nt	nt	0.66	-4.7	104.2	i	nt
